Screens as filed in PubChem.
TsaE inh: YjeE (TsaE) inhibition, E. coli; P0AF67; 0.05% of 71,000 active; purified YjeE, fluorescence polarisation of a bound ADP probe; Potency, µM; AID 605; active = well fitted falling curve; inconclusive = weaker or top-dose-only fall, or a rising curve; inactive = flat or poorly fitted curve;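 further: top concentration of the series not given in the record; excess ADP was the control for the full effect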
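Purified YjeE (10 uM) with BODIPY Texas Red-labeled ADP probe (2 uM); compounds pin-transferred, 15 min at room temperature. Binding inhibition read as decreased fluorescence polarization; ADP titration as control.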
Bst PK mod: modulators of Bacillus stearothermophilus pyruvate kinase; partly purified Bacillus stearothermophilus pyruvate kinase, luminescence ATP production; ribose 5-phosphate activator present at AC10; Potency, µM; 1.2% of 51,000 active; AID 361; in the data active means potency below about 11 µM; inconclusive means mostly about 12 µM to 25 µM; inactive means weaker than that;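 the screen sought inhibitors and activators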;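 further: potency means the concentration at half of the fitted maximal effect; scaled between full activation by ribose 5 phosphate and full inhibition by luteolin; about four in five hits inhibit and the cells do not say which; series up to 57 µM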
* hit, by the source's call; i = inactive; u = inconclusive; x = no result given. Only part of the results is shown, so the mix of outcomes need not match the whole.

SMILES | TsaE inh | Bst PK mod
CN(C)c1ncc2nc(-c3ccccc3)c(=O)n(CCc3ccccc3)c2n1 | i | x
COc1ccc(N2C(=O)CC(N3CCOCC3)C2=O)cc1 (centres undefined) | i | x
COc1ccc(Cn2c(C)nc3oc4cc(OC)ccc4c(=O)c3c2=O)cc1 | i | >57
COc1ccc(-n2c(Cc3cccn3C)nnc2SCC(=O)Nc2ccccc2)cc1 | i | x
CC(=O)c1ccc(NC(=O)C(C)Sc2nnnn2C)cc1 (centres undefined) | i | >57
CC(C)OCCCNC(=O)C1CCN(S(=O)(=O)N2CCCCC2)CC1 | i | >57
CC(C)NC(=O)c1cc2cc(Br)ccc2oc1=O | i | >57
O=C(CSc1nnc(Cn2nnc(-c3ccccc3)n2)n1-c1ccccc1)Nc1ccc(F)cc1 | i | >57
O=C(O)c1ccncc1.O=C(O)c1ccncc1.[Cl][Pt]([Cl])([Cl])[Cl] | i | x
O=C(O)C1CCCN1c1ncnc2ccccc12 (centres undefined) | i | >57
Cc1ccccc1-n1c(Cn2c(=O)sc3ccccc32)nnc1SCC(N)=O | i | x
Cc1nc(Nc2cccc(C(F)(F)F)c2)nc2c1C(=O)CC(C)C2 (centres undefined) | i | >57
CCc1nnc(NC(=O)c2c(OC)cccc2OC)s1 | i | >57
CC(=O)NC(Cc1c[nH]c2ccccc12)C(=O)NCc1ccc2c(c1)OCO2 (centres undefined) | i | >57
COCCCNC(=O)Nc1ccc(Br)cc1Cl | i | >57
CCOc1cc(N2CCOCC2)c(OCC)cc1NC(=O)COc1cccc2cccnc12 | i | u
CCOC(=O)c1cccc2c1-c1ccccc1/C2=N/O | i | x
CC1(C)SCC(C(=O)O)N1C=O (centres undefined) | i | x
O=C(C1CC1)N1CCCN(C(=O)C2CC2)CC1 | i | x
CC(=O)NCC(=O)NC1(C(=O)NC2CCCC2)CCCCC1 | i | >57
Cc1cc(=O)oc2cc(OCC(O)CN3CCN(c4ccc(F)cc4)CC3)ccc12 (centres undefined) | i | >57
COc1ccc(OC)c(-n2c(O)cnc2Nc2nc(C)cc(C)n2)c1 | i | x
CCc1ccc(OCc2nnc(SCCN3CCOCC3)n2C)cc1 | i | >57
Cc1nc(SCC(=O)Nc2ccc3c(c2)OCCO3)c2oc3ccccc3c2n1 | i | >57
C=C(C)COc1ccc(-c2ncncc2Oc2ccc(OC)cc2)c(O)c1 | i | >57
CN1CCN2c3ncccc3Cc3ccccc3C2C1 (centres undefined) | i | x
O=C(CN1C(=O)CSC1=O)NC1CCCCC1 | i | >57
Cc1ccc(Oc2ccc(-c3nc(N)nc(N)n3)cc2)cc1 | i | x
COCCCn1c(C)nc2c(c1=O)c1nc3ccccc3nc1n2CCc1ccccc1 | x | >26
CCOC(=O)c1c(C)c(C(=O)NCc2cccnc2)c(C)n1CC | i | >57
COC(=O)c1ccc(C(=O)OC)c(NC(=O)CSc2nc(-c3ccco3)cc(C(F)(F)F)n2)c1 | i | >57
CCC(C)NC(=O)C1CCC(=O)N1Cc1ccc(C)cc1 (centres undefined) | i | >57
CC1=C(C(=O)OCc2ccccc2)C(c2ccc(C(F)(F)F)cc2)NC(=O)N1CCCCCC(=O)O (centres undefined) | i | x
CCOC(=O)C1=C(C)Nc2nc(SCC)[nH]c(=O)c2C1c1ccncc1 (centres undefined) | i | >57
O=c1oc2c(CN3CCOCC3)c(O)c(Cl)cc2c2c1CCCC2 | i | >57
NC(=O)c1cc(-c2ccccc2)nc(N2CCOCC2)n1 | i | 4*
O=C(Cn1ncnn1)OCc1ccccc1Cl | i | >57
N#Cc1nc(Cc2cccc3ccccc23)oc1NCC1CCCO1 (centres undefined) | i | u
COc1cc(-c2noc(CCC(N)=O)n2)cc(OC)c1OC | i | >57
CN(C)CCCNc1cc(Cl)c(S(=O)(=O)N2CCCCC2)cc1C(=O)O | i | >57
CCC(=O)Nc1ccc(NC(=O)c2ccccn2)cn1 | i | x
CCOC(=O)c1oc2ccccc2c1NC(=O)c1ccc2c(c1)OCO2 | i | >57
CCN(CC)CCCNC(=O)N[C@@H](Cc1ccccc1)C(=O)O | i | >57
O=C(c1ccco1)N1CCC(c2nc(-c3ccccc3Cl)no2)CC1 | i | >57
CCCC(=O)Nc1ccc(N2CCOCC2)cc1 | i | >57
COc1ccccc1NC(=O)C1=C(C)NC(SCC(=O)c2ccc(C)cc2)=C(C#N)C1c1ccco1 (centres undefined) | x | >26
O=C(O)c1cc(Cl)c(Cl)cc1C(=O)N1CCOCC1 | i | x
O=C(NC1CC2CCCC(C1)N2C(=O)NC1CCCCC1)c1ccc(F)cc1 (centres undefined) | i | >57
COc1ccccc1N1CCN(CC(=O)Nc2cccc(F)c2)CC1 | i | >57
COCCCNC(=O)C12CCC(C)(C(=O)C1)C2(C)C (centres undefined) | i | >57
COc1cccc(Cn2c(=O)c(-c3ccc(Cl)cc3)nc3cnc(OC)nc32)c1 | i | x
NC(=O)C[C@@H](N)c1nn[nH]n1 | i | x
COc1ccccc1C1CC(c2ccc(Cl)cc2)Nc2nc(N)nn21 (centres undefined) | x | >26
CC(NC(=O)COc1cccc(Br)c1)C(=O)O (centres undefined) | i | >57
Cc1ccc(CNC(=O)CCS(=O)(=O)c2cccc3nsnc23)cc1 | i | u
Cc1oc2cc(O)ccc2c(=O)c1Oc1ccccc1 | i | x
O=C(NCC(c1cccnc1)N1CCN(c2ccccc2)CC1)c1ccco1 (centres undefined) | i | >57
CC12CN3CC(C)(CN(C1)C31C(=O)N(Cc3ccccc3)c3ccccc31)C2=O (centres undefined) | i | >57
Cc1ccccc1/C=C\C1=NCCN1 | i | x
O=C(CC1Oc2ccccc2NC1=O)NCCCN1CCOCC1 (centres undefined) | i | x

Some values from above:
COc1ccccc1N1CCN(CC(=O)Nc2cccc(F)c2)CC1 in Bst PK mod = >57
COCCCNC(=O)C12CCC(C)(C(=O)C1)C2(C)C (centres undefined) in Bst PK mod = >57
CC12CN3CC(C)(CN(C1)C31C(=O)N(Cc3ccccc3)c3ccccc31)C2=O (centres undefined) in Bst PK mod = >57
O=C(c1ccco1)N1CCC(c2nc(-c3ccccc3Cl)no2)CC1 in Bst PK mod = >57
CC(NC(=O)COc1cccc(Br)c1)C(=O)O (centres undefined) in Bst PK mod = >57

Next part.
SMILES | TsaE inh | Bst PK mod
CCN(C(=O)CSc1nc2cc(C(=O)OC)ccc2c(=O)n1Cc1ccco1)c1cccc(C)c1 | i | >57
CC1CCc2c(sc3ncn4c(SCC(=O)NCc5ccco5)nnc4c23)C1 (centres undefined) | i | >57
N#C/C(=C\c1c(N2CCC(C(N)=O)CC2)nc2ccccn2c1=O)S(=O)(=O)c1ccccc1 | x | >26
O=C(O)CCCNS(=O)(=O)c1ccc(NCc2ccccc2)c(C(=O)O)c1 | i | x
Cc1cc(NC(=O)COC(=O)C2CCN(C(=O)c3ccc(Cl)cc3)CC2)no1 | i | u
COC(=O)[C@@]1(Cc2ccc(F)cc2)[C@H]2c3cc(C(=O)N4CCCC4)n(C[C@H](O)CO)c3C[C@H]2CN1C(=O)c1ccccc1 | i | x
N#Cc1ccccc1-c1ccc2ncnc(NCc3cccnc3)c2c1 | i | x
CCCCn1c(N)c(N(CC)C(=O)c2ccc3c(c2)S(=O)(=O)c2ccccc2C3=O)c(=O)[nH]c1=O | i | >57
O=C(Nc1ccc2nc(-c3cccs3)[nH]c2c1)c1cccs1 | i | 10*
CC1=[N+]([O-])C(C)(C)CC(C)(C)c2ccccc21 | i | >57
O=C(O)C(Cc1cc2ccccc2[nH]1)N1C(=O)C2CC=C(Cl)CC2C1=O (centres undefined) | i | >57
CCOC(=O)c1ccccc1NC(=O)CSc1nnc(Cc2cccn2C)n1-c1ccc(F)cc1 | i | >57
CC1Cc2nc(SCC(=O)Nc3ccc(F)cc3)n(C)c(=O)c2S1 (centres undefined) | i | >57
CCOC(=O)c1c2c(c(=S)n(-c3ccccc3)c1N)CCC2 | x | >26
c1ccc(Oc2cccc(OCCn3cncn3)c2)cc1 | i | >57
Cc1cccc(-c2nc(CSCC(=O)NCCCN3CCOCC3)c(C)o2)c1 | i | >57
O=C(NCc1ccc(Cl)cc1Cl)c1ccccn1 | i | u
CCOC(=O)c1c(NC(=O)C2CCCN2S(=O)(=O)c2cccc3nsnc23)sc(C)c1C (centres undefined) | i | x
CC1(C)CC(=O)CC(C2(O)C(=O)N(Cc3ccccc3)c3ccccc32)O1 (centres undefined) | i | x
COc1ccccc1NS(=O)(=O)CC12CCC(CC1=O)C2(C)C (centres undefined) | i | >57

A different layout for part of the listing above.
CCCC(=O)Nc1ccc(N2CCOCC2)cc1
  TsaE inh = i
  Bst PK mod = >57
COc1ccccc1NC(=O)C1=C(C)NC(SCC(=O)c2ccc(C)cc2)=C(C#N)C1c1ccco1 (centres undefined)
  TsaE inh = x
  Bst PK mod = >26
O=C(O)c1cc(Cl)c(Cl)cc1C(=O)N1CCOCC1
  TsaE inh = i
  Bst PK mod = x

In another format: entries from further up
CCCCn1c(N)c(N(CC)C(=O)c2ccc3c(c2)S(=O)(=O)c2ccccc2C3=O)c(=O)[nH]c1=O
  TsaE inh: i | Bst PK mod: >57
O=C(Nc1ccc2nc(-c3cccs3)[nH]c2c1)c1cccs1
  TsaE inh: i | Bst PK mod: 10*
CC1=[N+]([O-])C(C)(C)CC(C)(C)c2ccccc21
  TsaE inh: i | Bst PK mod: >57

(cont.)
SMILES | TsaE inh | Bst PK mod
COc1cc2cc(C(c3nnnn3C3CCCCC3)N(C)C3CCCCC3)c(=O)[nH]c2cc1OC (centres undefined) | i | >57
CN1CCc2cccc3c2[C@@H]1Cc1ccc(O)c(O)c1-3 | i | x
CN(C(=O)C1CCOC1)c1nnc(-c2cnccn2)s1 (centres undefined) | i | >57
FC(F)(F)c1cc(NC(=S)N2c3ccccc3-n3cccc3[C@H]2c2cccnc2)cc(C(F)(F)F)c1 | i | x
Cc1ccc(S(=O)(=O)N(CC(O)CN(C)C)c2ccccc2)cc1 (centres undefined) | x | >26
Cc1noc(C)c1COC(=O)c1cc(C)n(-c2ccccc2)c1C | i | >57
Cc1cc(-c2ccccc2)n(-c2ccc(C(=O)N3CCN(c4ncccn4)CC3)cc2)n1 | i | >57
CC1CCCC(NS(=O)(=O)c2ccc3c(c2)OCCO3)C1C (centres undefined) | i | i
COCc1[nH]nc2c1C(c1cc(OC)c(O)c(OC)c1)C(C#N)=C(N)O2 (centres undefined) | i | >57
COc1ccc(NC(=O)C2C3CCC(C3)C2C(=O)O)cc1OC (centres undefined) | i | >57
c1ccc(Cn2nnnc2CN2CCN(c3ncccn3)CC2)cc1 | i | >57
COc1ccc(NC(=O)c2ccccc2NC(=O)C2CCCO2)cc1 (centres undefined) | i | >57
O=S(=O)(Nc1cccnc1)c1cccc2cccnc12 | i | x
CCCCOC(=O)Nc1cccc(C(C)=O)c1 | i | x
Nc1c(C(=O)Nc2ccc(F)cc2)sc2nc(-c3ccco3)ccc12 | i | >57
COc1ccc(C2C(C#N)=C(N)Oc3cc(C)n(CCN4CCOCC4)c(=O)c32)cc1OC (centres undefined) | x | >26
NC(=O)C1(N2CCCCC2)CCN(C(=O)CSc2nc(C(F)(F)F)cc(=O)[nH]2)CC1 | i | >57
CN1C(=O)Cn2c1nc1ccccc12 | i | >57
O=C(Nc1cccc(Cn2cccn2)c1)c1cc2c(s1)CCCC2 | i | i
O=C(NC1CCCCC1)[C@H](O)[C@@H](O)C(=O)NC1CCCCC1 | x | >26
COc1ccc2c(c1)cc(C)c1nnc(SCC(=O)N3CCN(C(=O)c4ccco4)CC3)n12 | i | >57
CS(=O)(=O)N(CC(=O)Nc1cccc(F)c1)Cc1ccccc1 | i | >57
Cc1ccc(Br)cc1 | i | x
Cc1cc(NC(=O)CSc2nc3c(c(-c4cccnc4)c2C#N)CCC3)no1 | i | x
CCCCCCN(C(=O)CCCCCN1C(=O)NC(C2CC2)C(C(=O)OCc2ccccc2)=C1C)C(C(=O)NCCCC)c1ccc(OCC(=O)OC)c(C(=O)OC)c1 (centres undefined) | i | x
Cn1nc(CC(=O)Nc2ccc3c(c2)OCCO3)c2ccccc2c1=O | i | >57
CCOC(=O)N1CCN(C(=O)C2CCCN(c3nc4ccc(OCC)cc4s3)C2)CC1 (centres undefined) | i | x
COc1ccc(CCNC(=O)c2c(-c3ccccc3)noc2C)cc1OC | i | x
CN(C)CCNC(=O)c1ccc(CS(=O)(=O)c2c(Cl)cccc2Cl)o1 | i | x
COc1cc(C(=O)N(Cc2ccco2)Cc2cc3ccccc3[nH]c2=O)cc(OC)c1OC | i | >57
Cc1ccc(C)c(Cn2nnc3c(=O)[nH]c(C(=O)NCC4CCCO4)nc32)c1 (centres undefined) | i | i
O=S(=O)(c1ccc2ccccc2c1)N1CCCOC1 | i | x
CC1(C)Cc2c(sc3nc(SCC(=O)N4CCOCC4)nc(N)c23)CO1 | i | >57
CCCc1nc2n[nH]c(N)c2c2c1COC(C)(C)C2 | x | >26
Oc1cc(O)c2c(c1)O[C@H](c1ccc(O)c(O)c1)[C@H](O)C2 | i | x
O=C(NC12CC3CC(CC(C3)C1)C2)N1CCN(S(=O)(=O)c2ccc(Cl)cc2)CC1 | i | >57
O=S(=O)(c1ccccc1)c1nc(-c2ccco2)oc1NCCCn1ccnc1 | i | >57
CCCc1cc(C(=O)Nc2ccc(C(C)=O)cc2)no1 | i | x
CSc1oc(-c2ccccc2)nc1C(N)=O | i | u
O=C(Nc1ccccc1)c1ccc(S(=O)(=O)NCC2CCCO2)cc1 (centres undefined) | i | >57
COC(=O)c1cc2occc2n1CC(=O)Nc1ccc(C)cc1C | i | >57
